Bioassay records from PubChem BioAssay.
Bfl-1 A1 inh: inhibitors of the anti-apoptotic protein A1, read as caspase activation; caspase activation, % (concentration not given with the values); MEF A1-2A-BIM cells, Caspase-Glo 3/7 luminescence, 3 h; percent of clofoctol response, vehicle zero; actives 0.066% (n = 330,000); AID 2462;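 active = over half of replicate activation scores above 10%, or exactly half above 10 with the replicate mean above 10; inconclusive = replicate mean below 10 yet half the replicates above 10; inactive = over half of replicates below 10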;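 note: wells of about 30 µL received 50 nL stock; many hits fall short of the cut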
Ecoli growth: E. coli growth inhibition. Escherichia coli growth, OD600, 23 h; stronger effect = lower value. OD600 absorbance (no concentration beside the values). actives 0.21% (n = 330,000);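 active = OD600 absorbance below the run mean of sample wells minus 3.6 SD, in any replicate, cut at about 0.56 in these data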;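 note: stock transfer was 300 nL into about 60 µL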
UCH37 DUB inh: inhibitors of human deubiquitinating enzyme UCH37; actives 0.33% (n = 330,000); AID 588478; Q9Y5K5; purified proteasome/UCH37, Ub-AMC cleavage fluorescence; inhibition, % (test concentration not listed);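 active = mean of two replicates above 20%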;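 note: 0% = compound-free wells with enzyme and 100% = wells lacking proteasome; stock transfer was 100 nL into about 20 µL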
Target sequence (Q9Y5K5 whole entry, looked up): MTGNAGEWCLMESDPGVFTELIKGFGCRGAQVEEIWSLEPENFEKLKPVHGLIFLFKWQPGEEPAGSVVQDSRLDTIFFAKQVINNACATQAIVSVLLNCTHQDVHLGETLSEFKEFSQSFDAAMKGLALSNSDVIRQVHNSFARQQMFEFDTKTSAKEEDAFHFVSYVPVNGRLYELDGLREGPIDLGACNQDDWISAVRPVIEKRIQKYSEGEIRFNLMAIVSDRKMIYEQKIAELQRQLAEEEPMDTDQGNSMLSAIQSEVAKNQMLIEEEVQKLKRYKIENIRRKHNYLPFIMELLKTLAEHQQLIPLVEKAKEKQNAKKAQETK
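Reagent: Ub-AMC substrate; assay system: Proteasome-associated human UCH37 deubiquitinase; controls: no-proteasome and no-compound wells; read-out: % inhibition of Ub-AMC cleavage fluorescence; timing: 30 min preincubation with enzyme, 25 min cleavage at room temperature; signal: AMC fluorescence from Ub-AMC cleavage, excitation 355 nm, emission 460 nm; buffer or medium: Tris-HCl pH 7.4 plus ovalbumin, ATP-MgCl2, DTT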
AF4-AF9 inh: inhibitors of human MLL-AF4/AF9 interaction. AlphaScreen, biotin-AF4 peptide binding to FLAG-AF9. inhibition, % at 10 µM. actives 0.47% (n = 350,000);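 active = every replicate reaching a set inhibition limit, whatever the replicate mean, cut at about 25% in these data; inconclusive = mean inhibition reaches that limit but some replicates miss it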;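 note: 0% = plate neutral control median and 100% = total signal loss; the record names both 10 and 1 µM as test concentration; the first replicate is given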
Target sequence (P42568 whole entry, looked up): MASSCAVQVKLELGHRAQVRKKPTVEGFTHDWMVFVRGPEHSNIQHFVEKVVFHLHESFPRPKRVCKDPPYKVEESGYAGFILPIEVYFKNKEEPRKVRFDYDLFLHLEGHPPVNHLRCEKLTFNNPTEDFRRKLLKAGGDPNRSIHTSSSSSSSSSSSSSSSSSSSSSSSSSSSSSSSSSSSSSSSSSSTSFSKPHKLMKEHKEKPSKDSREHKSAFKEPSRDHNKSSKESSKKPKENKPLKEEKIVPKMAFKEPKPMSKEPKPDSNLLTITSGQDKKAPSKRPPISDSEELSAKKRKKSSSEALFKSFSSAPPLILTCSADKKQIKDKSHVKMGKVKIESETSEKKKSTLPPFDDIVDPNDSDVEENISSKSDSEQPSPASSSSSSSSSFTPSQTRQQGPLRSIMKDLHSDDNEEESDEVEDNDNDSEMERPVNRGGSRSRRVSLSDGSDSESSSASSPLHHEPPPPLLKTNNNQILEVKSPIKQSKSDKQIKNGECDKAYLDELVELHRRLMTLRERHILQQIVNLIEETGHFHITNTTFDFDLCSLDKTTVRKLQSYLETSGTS
T cruzi repl: blocks replication of Trypanosoma cruzi; T. cruzi beta-gal in NIH3T3, luminescence, 90 h; inhibition, % (concentration not given with the values); actives 1.4% (n = 300,000);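 active = mean inhibition across valid replicates above about 55%, limit read from the data; inconclusive = mean below that limit but half or more replicates reach it; inactive = mean below it, under half of replicates reach it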;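 note: signal also drops with host cell toxicity which is not excluded here; 0% = plate median of DMSO wells and 100% = zero luminescence signal; higher percent means less beta-gal luminescence so fewer parasites; stock transfer was 50 nL into about 50 µL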
FGF22 binding: binders of recombinant human FGF22 by thermal shift; Q9HCT0; SYPRO orange fluorescence; percent of sucrose octasulfate shift, DMSO zero; calls only at 9.99 µM; actives 1.5% (n = 340,000); AID 651658;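 active = melting point raised past a set limit in the mean and every replicate; inconclusive = no clear call; three in four hits are not shown here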
Target sequence (Q9HCT0 whole entry, looked up): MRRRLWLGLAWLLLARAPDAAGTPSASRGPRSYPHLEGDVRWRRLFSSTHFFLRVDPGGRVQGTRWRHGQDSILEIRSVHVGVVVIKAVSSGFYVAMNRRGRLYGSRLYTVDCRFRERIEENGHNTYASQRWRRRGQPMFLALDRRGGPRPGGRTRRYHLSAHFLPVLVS
Beta cell apopt: blocks beta cell apoptosis. protection from apoptosis, % (test concentration not listed). INS-1E cytokine-induced death, ATP luminescence, 48 h; percent of positive-control rescue, neutral wells zero. AID 435005. actives 0.8% (n = 300,000);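 active = all replicates at 75% or more, or half of them and the mean; inconclusive = half reach 75% but not the mean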;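 note: 0% = cytokine-treated negative control wells and 100% = positive control rescue; higher means more ATP so stronger rescue from cytokine killing; wells of about 40 µL received 100 nL stock; the first replicate is given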
Ecoli rRNA inh: inhibitors of bacterial rRNA selective over humanized ribosomes; E. coli WT GFP vs humanized-ribosome RFP mutants, fluorescence, 24 h; stronger effect = lower value; DMSO median 0, no signal -100; GFP signal change (wild-type ribosome), % (test concentration not listed); actives 1.6% (n = 350,000); AID 720706;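 active = significant combined selectivity score with lowered wild-type GFP, culture density cut under 30%, mutant RFP and density less affected; inactive = any of these conditions unmet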; note: one replicate is shown; some compounds called inactive have numbers as strong as hits
Ecoli rRNA inh OD600: recorded beside Ecoli rRNA inh, whose call it bears; OD600 change, %; measured here: OD600 growth;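 optical density of the mix in the first replicate; 0 = DMSO median and -100 = no signal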
Ecoli rRNA inh RFP: also measured in Ecoli rRNA inh; calls as there; RFP signal change, %; measured here: RFP humanized mutant strains;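 first replicate; 0 = DMSO median and -100 = no signal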
An asterisk follows results filed as active; i = inactive; ? = inconclusive; nt = no result given. Some of the compounds tested (hit frequency here may not be typical).

SMILES	Bfl-1 A1 inh	Ecoli growth	UCH37 DUB inh	AF4-AF9 inh	T cruzi repl	FGF22 binding	Beta cell apopt	Ecoli rRNA inh	Ecoli rRNA inh OD600	Ecoli rRNA inh RFP
CCC(C)NS(=O)(=O)c1ccc(OCC(=O)NCc2ccco2)cc1 (centres undefined)	1.0	0.74	1.2	nt	-12	nt	nt	nt	nt	nt
O=c1[nH]c2ccccc2c2nc(-c3cccc(S(=O)(=O)N4CCCC4)c3)nn12	-0.3	0.72	6.7	3.4	38	i	2	-1	3	-4.0
Fc1ccc2c(c1)C(c1ccncc1)=NNC(c1cccnc1)=N2	0.1	0.71	2.3	nt	-5	nt	-4	nt	nt	nt
COC(=O)c1sccc1NC(=O)c1c(Cl)cccc1Cl	0.5	0.68	2.8	0.6	7	i	nt	4	6	-2.0
CCOC(=O)Nc1cccnc1Sc1ccc(Cl)cc1	0.4	0.69	-3.4	-1.3	21	i	nt	5	-2	0.2
CSCCC(NC(=O)c1ccccc1Cl)C(=O)NCCOc1ccccc1 (centres undefined)	-0.8	0.67	3.8	0.0	5	i	nt	8	4	1.0
S=C(NCc1ccc(Cl)cc1Cl)Nc1ccccc1	0.1	0.61	0.6	nt	-12	nt	2	nt	nt	nt
CCC(=O)N1c2ccc(S(=O)(=O)N3CCN(c4cc(C)ccc4C)CC3)cc2CC1C (centres undefined)	-0.4	0.67	5.0	-0.7	46	i	0	6	5	6.1
CCc1ccc(N(C(=O)Cc2cccs2)C(C(=O)NC2CCCCC2)c2cn(C)nc2C)cc1 (centres undefined)	0.5	0.74	2.4	nt	18	nt	6	nt	nt	nt
CCOC(=O)CCC(=O)O[C@H]1[C@H](O[C@@H]2[C@@H](C)[C@H](O[C@H]3C[C@@](C)(OC)[C@@H](O)[C@H](C)O3)[C@@H](C)C(=O)O[C@H](CC)[C@@](C)(O)[C@H](O)[C@@H](C)C(=O)[C@H](C)C[C@@]2(C)O)O[C@H](C)C[C@@H]1N(C)C	0.6	nt	nt	-4.4	-5	i	nt	nt	nt	nt
CNC(=O)C(=O)Nc1ccc2c(c1)N(S(=O)(=O)c1cccs1)CCC2	0.2	0.71	1.4	-21	2	i	-6	-2	-3	0.9
COC(=O)[C@H](CCSC)NC(=O)N1CCN(Cc2ccccc2)CC1	0.4	0.69	0.1	nt	-9	nt	-2	nt	nt	nt
COc1ccc(CCNC(=O)c2ccc3c(c2)N(Cc2ccc(F)cc2)CCS3)c(OC)c1	?	0.75	-81	3.0	-9	i	4	0	-2	0.5
Cc1cc2cc(CN(Cc3ccco3)C(=O)C3CCCCC3)c(=O)[nH]c2cc1C	0.3	0.75	-0.7	nt	19	nt	-4	nt	nt	nt
COCCn1c(SCC(=O)/C=C2\N(C)c3ccccc3C2(C)C)nnc1-c1ccncc1	-1.1	0.69	6.4	3.3	19	i	80*	-12	-15	42
CCc1nnc(NC(=O)CSc2nnc(-c3ccco3)n2CCOC)s1	-0.1	0.67	1.0	-1.4	-7	i	-1	9	25	2.2
COc1ccc(Oc2cccc(Cl)c2CNC(=O)CSCC(=O)O)cc1	0.2	0.68	2.7	-5.1	1	i	-1	0	3	-1.7
Cc1csc(=O)n1CC(=O)OCc1nnc(-c2ccccc2)o1	-0.3	0.64	-0.7	-9.6	-13	i	1	10	17	0.2
CCOc1ccc(S(=O)(=O)Nc2ccc(S(=O)(=O)N3CCCCC3)cc2)cc1	2.4	0.7	3.0	nt	1	nt	-3	-4	-21	-0.6
C=CCC1(CC=C)CCCN1C(=O)C1CCC(=O)N(CCc2ccccc2)C1 (centres undefined)	0.0	nt	nt	0.7	17	i	30	5	-2	2.7
Cc1ccccc1NC(=O)Cc1c(O)c2ccccc2[nH]c1=O	0.3	0.66	-2.0	2.5	2	i	-11	12	11	3.3
O=C(NCC1COc2ccccc2O1)c1cccc(S(=O)(=O)N2CCN(c3ccccc3)CC2)c1 (centres undefined)	nt	0.73	3.8	-1.1	nt	i	nt	-2	-9	-1.3
CCOC(=O)c1cccc(NC(=O)CCc2nnc3ccc(N4CCOCC4)nn23)c1	2.5	0.7	1.5	1.3	1	i	0	3	7	-2.1
CC1CCN(CCc2nc3cc(NC(=O)C(C)C)ccc3n2C)CC1	-0.2	0.67	1.8	-1.9	-5	i	-3	13	24	0.3
CC(C)[C@H](NC(=O)[C@@H]1CSC2c3ccccc3C(=O)N21)C(=O)NCC1CCCO1 (some centres undefined)	-0.1	0.69	4.3	-5.7	2	i	-2	4	5	-1.5
COc1ccc(-n2cnnc2SCCC#N)cc1	0.7	0.68	-0.1	nt	-8	nt	0	nt	nt	nt
COc1ccc(S(=O)(=O)Nc2ccc3c(c2)n(C)c(=O)n3C)cc1F	0.0	nt	nt	0.2	-1	i	4	-1	-10	1.8
Cc1ccc(F)cc1NC(=O)CSc1ncccn1	-0.4	0.66	3.0	-1.1	-28	i	-4	16	18	1.0
C#C[C@]1(O)CC[C@H]2[C@@H]3CCC4=CC(=O)CC[C@@H]4[C@H]3CC[C@@]21C	1.0	nt	-1.0	9.8	-5	i	4	2	-7	-0.1
CCCn1cc(S(=O)(=O)c2ccc(OC)cc2)c(=O)c2cc(OCC)ccc21	1.6	0.68	-10	0.7	-8	i	-2	-1	-3	-0.8
OC1NC(=S)N(c2ccccc2)C1O (centres undefined)	-0.1	0.66	0.8	-0.5	0	i	-2	10	9	1.2
Cc1ccc(-n2c(SCC(=O)NCC3CCCO3)nnc2-c2ccoc2C)cc1 (centres undefined)	0.9	0.72	0.0	nt	4	nt	1	nt	nt	nt
O=C(c1ccccc1Cl)N1CCNCC1	0.0	0.66	2.9	nt	-11	nt	nt	nt	nt	nt
CCCCN(C(=O)c1nn(C)c(=O)c2ccccc12)c1c(N)n(CC(C)C)c(=O)[nH]c1=O	0.2	0.68	3.8	0.6	nt	i	2	10	11	-0.6
O=C(CN(Cc1ccccc1)S(=O)(=O)c1ccc(S(=O)(=O)N2CCOCC2)cc1)Nc1ccccc1	-0.3	0.67	0.0	3.0	-11	i	-3	5	20	-5.2
CCN(CC)C(=O)COc1cc(C)cc2oc(=O)cc(-c3ccccc3)c12	-0.5	0.73	-3.1	nt	1	nt	13	nt	nt	nt

2 consecutive compounds from above:
SMILES	Bfl-1 A1 inh	Ecoli growth	UCH37 DUB inh	AF4-AF9 inh	T cruzi repl	FGF22 binding	Beta cell apopt	Ecoli rRNA inh	Ecoli rRNA inh OD600	Ecoli rRNA inh RFP
CC(C)[C@H](NC(=O)[C@@H]1CSC2c3ccccc3C(=O)N21)C(=O)NCC1CCCO1 (some centres undefined)	-0.1	0.69	4.3	-5.7	2	i	-2	4	5	-1.5
COc1ccc(-n2cnnc2SCCC#N)cc1	0.7	0.68	-0.1	nt	-8	nt	0	nt	nt	nt

The results go on:
SMILES	Bfl-1 A1 inh	Ecoli growth	UCH37 DUB inh	AF4-AF9 inh	T cruzi repl	FGF22 binding	Beta cell apopt	Ecoli rRNA inh	Ecoli rRNA inh OD600	Ecoli rRNA inh RFP
Nc1nonc1-c1nc2ccccc2n1CC(=O)N/N=C/c1ccc(-c2ccccc2C(=O)O)o1	0.1	nt	nt	1.4	-9	i	-20	16	3	6.4
Cc1cc(C)c(C(=O)NNC(=O)c2cccnc2)c(C)c1	0.1	0.65	-0.2	3.6	12	i	-5	1	-5	-1.1
O=C(NCCc1ccccc1)NC1CCCCC1	-1.2	0.69	0.0	nt	-8	nt	4	nt	nt	nt
Cc1cc(C)cc(NC(=O)CSc2nc(N)c(NC(=O)c3cccs3)c(=O)[nH]2)c1	1.4	0.68	-1.0	6.2	-14	i	-1	3	17	0.9
COc1cccc(NC(=O)COC(=O)/C=C/c2c(C)nn(-c3ccccc3)c2C)c1	1.9	0.68	0.9	-2.9	nt	i	-2	-40	-54	-9.1
Cn1c(=O)c2c(nc(SCC(=O)NCc3ccc4c(c3)OCO4)n2Cc2ccccc2)n(C)c1=O	1.4	0.71	4.7	nt	11	nt	-2	nt	nt	nt
COc1ccccc1S(=O)(=O)Nc1ccc2cn[nH]c2c1	-0.2	0.71	4.2	-5.7	-4	i	-2	4	12	0.3
O=C(CN1CCN(S(=O)(=O)c2ccc(F)cc2)CC1)Nc1ccc(Cl)c(C(F)(F)F)c1	-0.4	0.69	3.8	nt	17	nt	-3	nt	nt	nt
Cc1ccc(-c2nc(SCC(=O)NCC3CCCO3)c(-c3ccc(Cl)cc3)[nH]2)cc1 (centres undefined)	-0.5	0.74	0.9	3.8	21	i	-6	1	10	1.1
COc1ccc(C(=O)CSc2nnc(C3CCCCC3)n2N)c(OC)c1	0.2	0.75	5.1	nt	14	nt	-30	nt	nt	nt
COc1ccc(CNC(=O)[C@H](C)NC(=O)C2CCN(S(=O)(=O)c3ccccc3)CC2)cc1	-0.3	0.68	-0.4	0.1	-8	i	0	2	15	0.7
O=C(N/N=C/c1c(Nc2cccc(C(F)(F)F)c2)nc2ccccn2c1=O)c1ccccc1[N+](=O)[O-]	0.1	nt	nt	-5.9	25	i	5	9	9	3.3
O=C(CCn1cccc1)Nc1nccs1	0.0	0.7	-0.6	nt	5	nt	-2	nt	nt	nt
COC(=O)CSc1cccc2c1C(=O)CC2c1ccccc1 (centres undefined)	-0.4	0.67	4.8	-2.4	-4	i	-7	-30	-30	-6.7
Cc1cc(C)n2nc(SCCCC(=O)c3ccc(F)cc3)nc2n1	-0.3	0.7	2.1	-3.8	3	i	-2	-3	-18	-5.2
CN1CCN(c2ccc(NC(=S)NC(=O)c3cccc4ccccc34)cc2)CC1	0.7	0.68	2.6	9.1	45	i	12	-6	3	8.5
CCOC(=O)c1c(C)[nH]c(C)c1C(=O)COC(=O)c1nc2nccc(C)n2n1	1.6	0.66	5.5	1.0	6	nt	-4	17	8	4.7
COCC(=O)Nc1ccc(S(=O)(=O)NCCc2ccccc2)cc1	1.5	0.68	0.9	nt	-16	nt	-3	nt	nt	nt
Cc1ccc(S(=O)(=O)N(C)CC(=O)Nc2cc(C)ccn2)cc1	-0.5	0.6	-0.3	-8.5	-10	i	-13	0	2	-1.7
CNC(=O)c1c[nH]n2c(=O)c(Cc3ccccc3F)c(C)nc12	0.3	0.76	0.6	-13	-4	i	4	0	-7	-3.6
NC(=O)COC(=O)c1ccc2noc(-c3ccccc3)c2c1	-0.2	0.66	-0.4	2.5	-16	i	-7	-12	-4	4.5
CCOC(=O)Cn1cc(/C=C(\C#N)C(=O)N2CCOCC2)c2ccccc21	1.4	0.68	8.3	0.2	-26	i	nt	-6	-2	-4.7
Cn1c2ccsc2c2ncn(Cc3ccccc3F)c(=O)c21	0.3	0.7	-243	0.0	nt	i	1	-6	-9	1.7
Nc1nonc1-n1nnc(C(=O)N/N=C/c2ccc(F)cc2)c1-c1cccs1	-0.5	nt	nt	0.0	2	i	-7	-4	3	-0.3
